# Screening data as filed in PubChem BioAssay.
# WNV protease inh – inhibitors of West Nile virus NS2B-NS3 protease. P06935. WNV NS2B-NS3 protease, fluorogenic substrate Ex360/Em465; stronger effect = lower value. z-score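 (tested at a level between 10 and 100 µM)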. 0.18% of 65,000 active. AID 577;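 active = z-score at -3 or under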;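 also: score is relative to mean and spread of the compound wells of a plate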
# Target sequence (P06935 1371-1501 limits assumed): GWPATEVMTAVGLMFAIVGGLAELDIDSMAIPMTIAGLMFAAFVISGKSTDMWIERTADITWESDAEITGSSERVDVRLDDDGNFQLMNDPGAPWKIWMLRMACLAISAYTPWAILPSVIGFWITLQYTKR
# Target sequence (P06935 1502-1679 limits assumed): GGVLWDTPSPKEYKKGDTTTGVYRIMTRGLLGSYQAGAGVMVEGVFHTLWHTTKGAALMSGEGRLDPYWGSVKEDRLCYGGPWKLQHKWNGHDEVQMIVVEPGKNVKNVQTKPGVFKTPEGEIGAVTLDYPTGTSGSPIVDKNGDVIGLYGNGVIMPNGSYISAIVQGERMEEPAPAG
# MT1-MMP reporter – MT1-MMP gene expression reporter suppression – cell-based, luciferase reporter, luminescence (AID 618); MT1-MMP promoter luciferase reporter cells, luminescence; calls from a first round at 10 µM; hits with a dose series show EC50 in µM; 0.62% of 87,000 active;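 active = over half of the reporter light lost at 10 µM or EC50 under 50 µM; inactive = the rest and hits that failed the dose series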;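 also: actives suppress MT1-MMP promoter-driven transcription so potencies describe inhibitors; HT1080 fibrosarcoma cells; overnight exposure; toxic or luciferase-blocking compounds were not removed from the actives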
# Hsc70 ATP site – small molecules displacing fluorescent ligand from Hsc70 – biochemical, fluorescence polarization, primary screen (AID 568) | Hsc70 fluorescence polarization, probe displacement; higher % means a stronger effect; strong numbers were not always called active | displacement, % at 20 µM; hits with a dose series show IC50 in µM | 83,000 tested, under 10 active;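 active = displacement above 50% without optical interference and an IC50 on retest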;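 also: ATPase domain with a fluorescein-tagged ATP probe; 0% = vehicle and 100% = excess ADP; read after one hour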
# * = called active by the depositor; i = inactive; . = no result given; + = active, no number. A portion of the library; the hit share may differ from the screen's.
compound	WNV protease inh	MT1-MMP reporter	Hsc70 ATP site
O=C(CCc1nc(-c2ccccc2)c(-c2ccccc2)o1)OCc1ccc(Cl)cc1	.	i	3.5%
C=CCOC(=O)C1=C(C)OC(N)=C(C#N)C1c1ccc(F)cc1 (stereo unspecified)	0.3	i	-5.0%
COc1ccc(OC)c(N(CC(=O)NC2CC2)S(=O)(=O)c2ccc(C)cc2)c1	-0.79	i	20.6%
COC(=O)CCN(C(=O)C12CC3CC(CC(C3)C1)C2)c1ccccn1	.	i	7.0%
CN(C(=O)c1cc2n(n1)C(C(F)(F)F)CC(c1ccco1)N2)c1ccc(OC(F)(F)F)cc1 (stereo unspecified)	-0.03	i	5.3%
O=C(OC(C(=O)NCC1CCCO1)c1ccc(F)cc1)c1ccco1 (stereo unspecified)	-0.69	i	1.2%
CC(C)N(Cc1nnc(-c2ccccc2Cl)o1)C(=O)c1cccc(C#N)c1	1.11	i	-1.1%
CNC(=O)c1ccc(N(Cc2ccccc2)S(C)(=O)=O)cc1	0.7	i	1.0%
COc1ccccc1CN(CC(=O)NCc1ccco1)C(=O)CNS(=O)(=O)c1ccccc1	-0.22	i	1.2%
CC12CCC(C(=O)Nc3ncc([N+](=O)[O-])s3)(OC1=O)C2(C)C (stereo unspecified)	.	i	3.5%

# (list continues)
compound	WNV protease inh	MT1-MMP reporter	Hsc70 ATP site
COc1ccc(Nc2oc(COc3ccc(C)cc3)nc2C#N)cc1	.	i	-2.3%
CCOC(=O)c1c(C)c(C(=O)NCCCOC(C)C)c(C)n1C	-0.46	i	-5.2%
COc1ccc2c(Cl)c(C(=O)NCCCn3ccnc3)sc2c1Cl	.	i	5.1%
Cc1nc(SCC(=O)Nc2ccccc2)c2oc3ccccc3c2n1	-1.4	i	-1.0%
O=C(NCCc1ccccc1)C1CCCN1C(=O)NCc1ccccc1 (stereo unspecified)	0.86	i	8.8%
CCOC(=O)c1c(C)nc2c(c1C)/C(=N/O)CC(C)(C)C2	-1.81	i	-2.9%
O=C(NCc1ccccc1)c1ccc(F)c(S(=O)(=O)N2CCOCC2)c1	-0.93	i	-11.9%
Brc1ccc(CN2CCN(c3ccccn3)CC2)s1	.	i	-2.8%
COc1ccc(NC(=O)CCS(=O)(=O)c2cccc3nonc23)c(OC)c1	-0.28	i	4.1%
O=C(Cn1nnc(-c2cccs2)n1)N1CCc2ccccc2C1	-0.51	i	-7.9%

# Next part:
compound	WNV protease inh	MT1-MMP reporter	Hsc70 ATP site
CCC(CC)C(=O)Nc1cccc(-c2nc3ccccc3o2)c1	-1.46	i	-2.1%
CCOc1ccc(NC(=O)CN(C)CC(=O)NC2CCCc3ccccc32)cc1OCC (stereo unspecified)	-0.72	i	-0.1%
COc1ccc(C(=O)Nc2ccccc2NC(=O)c2ccco2)cc1OC	-0.55	i	-1.5%
CC(C)(C)C(=O)[C@H]1[C@H](c2ccccc2)[C@@]2(N=C(c3ccccc3)OC2=O)C2c3ccccc3C=NN21 (stereo partly specified)	.	i	6.9%
COc1ccc(CNC(N)=O)cc1	.	i	-1.6%
Cc1ccc(C(=O)Nc2c3c(nn2C(C)(C)C)CS(=O)(=O)C3)cc1C	0.98	i	-5.3%
CCOC(=O)c1sc(NC(=O)CNC(=O)Cn2cnc3sc(C)c(C)c3c2=O)nc1C	-0.17	i	-3.0%
Cc1cccc(C(=O)NNS(=O)(=O)c2ccccc2[N+](=O)[O-])c1	.	i	2.4%
CC(=O)c1ccc(N2C(=O)[C@@H]3C(CCC(N)=O)NC4(C(=O)Nc5c4ccc(Cl)c5C)[C@@H]3C2=O)cc1 (stereo partly specified)	1.32	i	-2.9%
COc1ccc(S(=O)(=O)N(CC(=O)NC2CC2)C2CCCCC2)cc1Cl	0.87	i	-0.8%

# (more compounds)
compound	WNV protease inh	MT1-MMP reporter	Hsc70 ATP site
COc1ccc(C(=O)/C(C)=N/O)cc1OC	0.16	i	-6.2%
CCc1cc2cc(C(=O)Nc3ccccc3F)sc2s1	-0.63	i	7.9%
Cc1cc(C(=O)NCc2cc(C)n(C)n2)sc1-c1ccccc1	1.01	i	3.9%
COc1ccc(CCNc2oc(-c3ccccc3OC)nc2C#N)cc1OC	-1.14	i	-1.0%
Cn1c(Cn2c(=O)sc3ccccc32)nnc1SCC(=O)N1CCN(c2ccccc2)CC1	-0.11	i	6.0%
COc1ccc(CCn2c(=N)c(C(=O)NCc3ccco3)cc3c(=O)n4cccc(C)c4nc32)cc1	0.7	i	-2.2%
COc1ccc(N2C(=O)CCC(C(=O)c3ccccc3)=C2C)cc1	-0.29	i	-0.2%
CN(C)CCNC(=O)c1ccc(-c2nn(C)c(=O)c3ccccc23)cc1	.	i	-1.2%
CC(=O)Nc1cccc(-c2nnc(-c3ccccc3)o2)c1	0.71	i	5.8%
CCCC(=O)Nc1cccc(-c2cn3ccsc3n2)c1	-1.1	i	-4.0%

# (cont.)
compound	WNV protease inh	MT1-MMP reporter	Hsc70 ATP site
CCCCOc1ccc(NC(=O)CSc2nnnn2C)cc1	-0.21	i	-1.1%
Cc1ccccc1CS(=O)(=O)Cc1ccc(C(=O)NCC2CCCO2)o1 (stereo unspecified)	1.79	i	-6.4%
CC(=O)Nc1ccc(OCC(O)Cn2cnc3ccccc32)cc1 (stereo unspecified)	.	i	-0.2%
Cc1cc(NC(=O)CSc2nc3ccccc3n2CC(=O)N2CCCCC2)no1	0.05	i	-4.2%
COc1ccccc1-c1nc(C#N)c(N2CCN(Cc3ccccc3)CC2)o1	0.02	i	6.1%
COc1ccccc1NC(=O)CSc1nnc(-c2ccc(NC(C)=O)cc2)n1C	-0.02	i	0.5%
CCOc1cc(C2CC(=O)NC3=C2C(=O)C(C(=O)OC)C(C)C3)cc(Cl)c1O (stereo unspecified)	0.27	i	-2.4%
CCn1cc(C(=O)NCc2ccc(Cl)cc2)c(=O)c2cc(S(=O)(=O)N3CCOCC3)ccc21	0.97	i	7.1%
CC(C)N(CCCNC(=O)CC1Oc2ccccc2NC1=O)Cc1ccccc1 (stereo unspecified)	2.01	i	-4.8%
CCC(C)C(=O)Nc1nc2c(s1)C(=O)CC(C)(C)C2 (stereo unspecified)	-0.41	i	0.4%

# Next structures.
compound	WNV protease inh	MT1-MMP reporter	Hsc70 ATP site
COc1ccc(OC(C)C(=O)N2CC(C)OC(C)C2)cc1 (stereo unspecified)	0.21	i	1.8%
CCOc1cc(C(=O)Nc2nnc(C)s2)cc(OCC)c1OCC	-0.27	i	1.1%
CC(=O)N1CCN(c2ccc(NCc3ccc(C(C)C)cc3)cc2)CC1	1.06	i	0.4%
CC(=O)c1cccc(NC2c3ccccc3C(=O)N2Cc2ccc3c(c2)OCO3)c1 (stereo unspecified)	-0.41	i	6.0%
COCCCn1c(=NC(=O)c2ccncc2)c(C#N)cc2c(=O)n3cccc(C)c3nc21	4.04	i	9.6%
CC(C(=O)NC1=NCCS1)N1C(=O)C2CC=CCC2C1=O (stereo unspecified)	1.28	i	-10.4%
Cc1nccn1CC(O)COc1ccccc1 (stereo unspecified)	.	i	-3.5%
CCOP(=O)(c1ccc(N(C)C)cc1)C(O)c1cc(OC)c(OC)c(OC)c1 (stereo unspecified)	1.52	i	-0.7%
CCOc1cccc(C(=O)Nc2cccc(-c3nc4ncccc4o3)c2C)c1	-0.27	i	-3.5%
COC(=O)c1ccc(C2c3c(oc4cc(C)c(C)cc4c3=O)C(=O)N2CCCN(C)C)cc1 (stereo unspecified)	1.23	i	-0.3%

# Molecules shown so far containing a tert-butyl group (two):
compound	WNV protease inh	MT1-MMP reporter	Hsc70 ATP site
CC(C)(C)C(=O)[C@H]1[C@H](c2ccccc2)[C@@]2(N=C(c3ccccc3)OC2=O)C2c3ccccc3C=NN21 (stereo partly specified)	.	i	6.9%
Cc1ccc(C(=O)Nc2c3c(nn2C(C)(C)C)CS(=O)(=O)C3)cc1C	0.98	i	-5.3%

# A few values from above.
# COC(=O)c1ccc(C2c3c(oc4cc(C)c(C)cc4c3=O)C(=O)N2CCCN(C)C)cc1 (stereo unspecified) – Hsc70 ATP site = -0.3%
# COCCCn1c(=NC(=O)c2ccncc2)c(C#N)cc2c(=O)n3cccc(C)c3nc21 – Hsc70 ATP site = 9.6%
# CC(=O)c1cccc(NC2c3ccccc3C(=O)N2Cc2ccc3c(c2)OCO3)c1 (stereo unspecified) – Hsc70 ATP site = 6.0%
# Cc1nccn1CC(O)COc1ccccc1 (stereo unspecified) – Hsc70 ATP site = -3.5%

# Further structures.
# Results follow in this order: WNV protease inh, MT1-MMP reporter, Hsc70 ATP site
CCn1c(SCC(=O)Nc2cc(C)on2)nnc1-c1ccc(S(=O)(=O)N2CCN(C)CC2)cc1
    ., i, -1.6%
CCOc1ccc(NC(=O)C2CCCN(C(=O)Nc3ccccc3)C2)cc1 (stereo unspecified)
    ., i, 0.3%
Cc1ccc(Oc2ccc(OCC(=O)NC(C)C(=O)O)cc2)cc1 (stereo unspecified)
    -0.06, i, 1.3%
Cc1cc(C(F)(F)F)n2ncc(C(=O)O)c2n1
    0.96, i, -2.2%
CN1CCN(CCCNC(=O)c2ccc(CSCc3cccc(Cl)c3)o2)CC1
    -1.16, i, -3.0%
CCCN(Cc1ccccc1)C(=O)Nc1ccc2c(c1)nnn2C
    1.28, i, -4.3%
COC(=O)Cc1[nH]nc2c1C(c1c[nH]c3ccccc13)C(C#N)=C(N)O2 (stereo unspecified)
    -0.95, i, 2.0%
Cc1ccc(-c2nc(NC(=O)CSc3nnc4scc(-c5ccccc5)n34)ns2)cc1
    0.43, i, 1.6%
CCSc1nc(C2CC2)cc(-c2ccco2)c1C#N
    ., i, 8.3%
COc1ccc2c(c1)Sc1ccccc1N2CCN(C)C
    0.21, +, 1.1%
CCSC(C)CC1C/C(=N/O)c2c(CC)noc2C1 (stereo unspecified)
    0.42, i, 1.0%
COc1ccc(C)cc1NCc1cccc(OC)c1OC
    -0.49, i, 0.9%
Clc1ccc(OCc2nnc3n2N=C(c2ccc4c(c2)OCCO4)CS3)c(Cl)c1
    -1.36, i, 1.8%
c1ccc(C(c2nnnn2C2CCCC2)N2CCN(c3nc4ccccc4s3)CC2)cc1 (stereo unspecified)
    ., i, -0.6%
Cn1c(=O)c2c(nc(SCCCO)n2Cc2ccccc2Cl)n(C)c1=O
    -0.61, i, 6.9%
CC1(C)Oc2ccc3ccc(=O)oc3c2-c2cnoc21
    -0.61, i, -3.8%
CC(=O)c1cc2c(cc1NC(=O)C1CC1)OCO2
    ., i, 0.7%
OC(CN1CCOCC1)CN1CCOCC1
    0.13, i, -3.3%
O=C1OCCN1/N=C/c1ccc([N+](=O)[O-])o1
    ., i, -1.9%
Cc1cccc(C)c1OCC(O)Cn1nnc2ccccc21 (stereo unspecified)
    ., i, -3.1%

# Other records.
# Results follow in this order: WNV protease inh, MT1-MMP reporter, Hsc70 ATP site
O=C(CSc1nnc(-c2cccnc2)n1-c1ccccc1)Nc1ccccn1
    0.06, i, 1.5%
CCC(C)c1ccc(O)c(NC(=O)c2ncn[nH]2)c1 (stereo unspecified)
    0.07, i, -2.3%
COCCn1c(SCC#N)nnc1-c1ccc2c(c1)OCO2
    -0.35, i, -9.3%
O=C(NCc1ccco1)C1CC(=O)N(c2ccc(O)cc2)C1 (stereo unspecified)
    1, i, 4.1%
Cn1c(=O)c2cc(S(=O)(=O)NCCC(=O)Nc3ccccc3F)ccc2n(C)c1=O
    1.76, i, -1.0%
CC1CCCCN1S(=O)(=O)c1ccc2c(c1)oc(=O)n2CC(=O)O (stereo unspecified)
    0.32, i, -1.2%
Cc1ccc(-c2nc(-c3ccccn3)no2)cc1Cl
    -0.47, +, -0.7%
COc1ccc(CCNC(=O)CSc2nc3c(c(=O)n(C)c(=O)n3C)n2C(C)C)cc1OC
    -0.06, i, 4.2%
c1cc2nnnn2nc1N1CCCCCC1
    ., i, -2.6%
COc1ccccc1S(=O)Cc1ccc(C(=O)NCc2ccccc2Cl)o1 (stereo unspecified)
    -0.35, i, 2.8%
CN(C)CC(=O)c1ccc(-c2ccccc2)cc1
    1.02, i, -8.1%
Cc1n[nH]c(=O)nc1N1CCc2ccccc2C1
    1.37, i, 9.9%
COC(=O)c1ccc(C(=O)OC)c(N)c1
    3.1, i, 3.8%
Cc1cc(=O)c2n(Cc3ccccc3Cl)nc[n+]2[nH]1
    0.5, i, -5.9%
CC1CCCCN1C(=O)COc1ccc(NC(=O)c2ccco2)cc1 (stereo unspecified)
    0.04, i, -1.4%
CCOc1cc(S(=O)(=O)N2CCOCC2)ccc1F
    -0.26, i, 2.9%
CCn1c(SCC(=O)N2c3ccccc3CCc3ccccc32)nc2c1c(=O)n(C)c(=O)n2C
    -0.2, i, -1.7%
O=c1[nH]c(=S)c2c(n1-c1ccccc1)CCC2
    0.05, i, 0.1%
O=c1c2ccccc2nnn1CSc1nnc(-c2ccc3c(c2)OCO3)o1
    -0.46, i, -3.2%
COc1ccc(OCC(=O)N2CCN(C(=O)c3cccc4ccccc34)CC2)cc1
    0.37, i, 1.9%

# Next section
# Results follow in this order: WNV protease inh, MT1-MMP reporter, Hsc70 ATP site
COc1ccc(C(=O)N2CCN(C(=O)c3ccco3)CC2)cc1OC
    -0.24, i, -1.7%
COC(=O)C(Cc1cnc(Cl)s1)(C(=O)OC)c1ccccc1[N+](=O)[O-]
    ., i, 3.4%
COc1cc(C)c(CNc2cccc(C)c2)cc1C
    ., i, 3.0%
Cc1cc(C)n2nc(C(=O)Nc3nccs3)nc2n1
    ., i, 1.5%
Cc1nnc(NC(=O)c2cccc(F)c2)s1
    0.37, i, 3.1%
N#CC1=C2SCN(Cc3ccccc3)CN2C(=O)CC1c1ccc2c(c1)OCO2 (stereo unspecified)
    -0.62, i, -2.7%
